Screening data from PubChem BioAssay.
Mtb growth: M. tuberculosis H37Rv growth inhibitors, H37Rv strain (AID 1626) | one-dose inhibition, % at 10 µM; IC50 in µM for titrated hits | M. tuberculosis H37Rv growth inhibition; higher % means a stronger effect | 220,000 compounds, 0.95% hits;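 active = confirmed in a dose series; inconclusive = inhibition above 80% but not taken into the dose series; inactive = below 80% or under 30% at every dose of the series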;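 note: bacteria incubated seven days before Alamar blue readout; 0% = bacteria only wells and 100% = bacteria with antibiotic wells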
RecA splice inh: Mtb RecA intein splicing inhibitors, primary screen, biochemical, fluorescence, HTS | inhibition, %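 (about 9 µM by stock and volumes)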 | cell-free RecA intein splicing | 290,000 compounds, 0.75% hits | AID 2221, 2009 | Protein RecA (Mycobacterium tuberculosis (strain ATCC 25618 / H37Rv)), P9WHJ3; in the data active = inhibition above about 30%; inconclusive = no clear call, values can overlap the other calls;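 note: 0% = vehicle wells and 100% = reference inhibitor control wells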
Target sequence (P9WHJ3 whole entry, looked up, canonical isoform): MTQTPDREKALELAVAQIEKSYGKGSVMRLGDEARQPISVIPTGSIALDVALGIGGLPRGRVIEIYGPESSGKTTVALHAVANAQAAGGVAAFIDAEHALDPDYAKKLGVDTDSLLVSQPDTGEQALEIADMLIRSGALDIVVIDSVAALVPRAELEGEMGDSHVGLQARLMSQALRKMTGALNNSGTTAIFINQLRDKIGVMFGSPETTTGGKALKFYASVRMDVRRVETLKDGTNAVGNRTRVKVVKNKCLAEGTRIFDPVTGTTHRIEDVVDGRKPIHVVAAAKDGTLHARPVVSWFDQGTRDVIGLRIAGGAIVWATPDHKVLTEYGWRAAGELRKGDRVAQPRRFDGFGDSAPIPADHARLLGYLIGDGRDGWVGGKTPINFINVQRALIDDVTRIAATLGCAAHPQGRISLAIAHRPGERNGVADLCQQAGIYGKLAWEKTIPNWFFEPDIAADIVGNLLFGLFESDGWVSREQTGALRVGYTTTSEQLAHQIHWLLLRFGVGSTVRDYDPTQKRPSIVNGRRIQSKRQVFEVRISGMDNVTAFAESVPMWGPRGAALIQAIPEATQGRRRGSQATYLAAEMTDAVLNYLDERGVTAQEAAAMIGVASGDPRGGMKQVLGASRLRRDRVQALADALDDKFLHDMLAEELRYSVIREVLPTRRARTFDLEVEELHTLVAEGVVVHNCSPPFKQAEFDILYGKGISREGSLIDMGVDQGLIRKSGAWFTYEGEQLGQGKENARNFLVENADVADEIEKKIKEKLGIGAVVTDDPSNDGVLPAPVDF
Arbovirus inh: antivirals against arbovirus infection, primary screen, cell-based, full library, 10K replicate subset | arbovirus infection cell-based antiviral screen | inhibition, % at 10 µM | 200,000 compounds, 0.37% hits | AID 1251, 2008;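 active = inhibition from about 30%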;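 note: bluetongue infection of BSR cells; cell survival read as ATP light after 72 h; 0% = infected wells without compound and 100% = uninfected wells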
YopH inh: YopH tyrosine phosphatase inhibitors, primary screen, biochemical, fluorescence Ex485/Em525; inhibition, %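 (about 10 µM by stock and volumes)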; 140,000 compounds, 0.16% hits; YopH tyrosine phosphatase [Yersinia enterocolitica];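 active = inhibition of 50% or more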;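 note: controls were vehicle for no effect and minimum signal wells for full effect; inactives centre near -20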
Mtb betalactam: beta-lactam sensitization of Mtb H37Rv, H37Rv. M. tuberculosis H37Rv growth with meropenem, percent inhibition; hits of this screen are not shown here. inhibition, % at 25 µM. 330,000 compounds, 0.27% hits. AID 434955, 2010;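 active = about 74% or more and at least 40 points above the plate without the antibiotic, then above 30% in a dose series; inconclusive = first-round hits that could not be retested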;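 note: growth measured after seven days incubation then overnight dye step; 0% = bacteria only wells and 100% = bacteria with antibiotic; twin plates without the antibiotic show which effects depend on it; some results filed as inactive read as strong as hits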
Arbovirus inh repeat: further read-out of Arbovirus inh, marked with its call; inhibition, %; measured here: 10K subset replicate screen; many hits read low in the repeat;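 first of two repeat runs on a subset; 0% = infected and 100% = uninfected wells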
The depositor's hits bear a star; ? = inconclusive; . = no result given.

SMILES | Mtb growth | RecA splice inh | Arbovirus inh | YopH inh | Mtb betalactam | others
Cc1ccc(NC(=O)COC(=O)CCc2nc3ccccc3n2-c2ccccc2)c(C)c1 | -3% | -1.0 | 5 | -37 | -1
OCCN1CCN(c2cc(C(F)(F)F)nc3ccccc23)CC1 | -5% | -0.2 | . | . | -6
COc1cccc(OCc2ccc(Cl)cc2)c1C#N | -1% | 1.6 | . | . | -7
Cc1ccccc1NC(=O)CCCn1nc(C)c2c(C)n(-c3ccccc3)nc2c1=O | . | -3.9 | . | . | 1
CN(Cc1ccccc1)c1nc2c(c(=O)[nH]c(=O)n2C)n1C | -5% | 1.0 | -10 | -18 | -9
COc1cccc(C(=O)O/N=C(\N)c2ccc([N+](=O)[O-])cc2)c1OC | -4% | 52* | -13 | -42 | 5
Cc1ccc(C(c2nnnn2C(C)(C)C)N(Cc2ccco2)Cc2cccs2)cc1 (configuration not stated) | 2% | -1.9 | 11 | -22 | -8
O=C(COC(=O)CCOc1ccccc1)NCCc1ccccc1 | . | 0.4 | . | . | -5
COc1ccc(Nc2nc(N3CCCC3)nc(N3CCCC3)n2)c(OC)c1 | 2% | -3.4 | 5 | -17 | 2
Cc1ccc(OCc2ccc(C(=O)N3CCCC3)o2)cc1C | . | 1.9 | . | . | 2
Cc1cc(N2CCOCC2)nc2ccc(NC(=S)N3CCCCC3C)cc12 (configuration not stated) | 26% | -5.0 | -15 | . | 94
O=C(N/N=C/c1ccccc1O)c1ccncc1 | . | 1.2 | . | . | 100
CC(=NCCCn1ccnc1)c1c(-c2ccccc2)[nH]n(-c2nc3ccccc3s2)c1=O | 3% | 0.0 | -18 | -20 | 43
CCCn1c(NC(=O)c2ccccc2Br)nc2ccccc21 | ? | -0.6 | -9 | . | 86
O=C(CCNC(=O)N1CCn2c1nc1ccccc12)NCc1ccccc1Cl | . | 0.2 | . | . | 4

A stretch of the results above, as a working copy:
SMILES | Mtb growth | RecA splice inh | Arbovirus inh | YopH inh | Mtb betalactam | others
O=C(N/N=C/c1ccccc1O)c1ccncc1 | . | 1.2 | . | . | 100
CC(=NCCCn1ccnc1)c1c(-c2ccccc2)[nH]n(-c2nc3ccccc3s2)c1=O | 3% | 0.0 | -18 | -20 | 43
CCCn1c(NC(=O)c2ccccc2Br)nc2ccccc21 | ? | -0.6 | -9 | . | 86
O=C(CCNC(=O)N1CCn2c1nc1ccccc12)NCc1ccccc1Cl | . | 0.2 | . | . | 4

Back to the main list; the 2 compounds before the break are reprinted first.
SMILES | Mtb growth | RecA splice inh | Arbovirus inh | YopH inh | Mtb betalactam | others
CCCn1c(NC(=O)c2ccccc2Br)nc2ccccc21 | ? | -0.6 | -9 | . | 86
O=C(CCNC(=O)N1CCn2c1nc1ccccc12)NCc1ccccc1Cl | . | 0.2 | . | . | 4
O=C(CSc1nnc(CNC(=O)c2ccco2)o1)Nc1ccc(F)cc1 | . | -7.1 | . | . | -2
COc1ccc(N(C)C(=O)c2cn(C)c(=O)c3cc(OC)c(OC)cc23)cc1 | . | 0.2 | . | . | -1
CC(C)c1ccc2c(c1)CCC1C(C)(CN)CCCC21C (configuration not stated) | ? | 12 | . | . | 98
Cc1ccc(Nc2nc(-c3ccncc3)cs2)cc1 | 7% | 7.6 | 15 | . | .
Cc1noc(C)c1S(=O)(=O)Nc1cccc(CO)c1 | . | -2.0 | . | . | -11
CCCN1C(=O)/C(=c2\sc3nc(=O)c(Cc4ccc(C)cc4)nn3c2=O)c2ccccc21 | 3% | 2.6 | 6 | . | -2
C=CCOn1c(=O)c(C)[n+]([O-])c2ccccc21 | 2% | -0.1 | 5 | -12 | -1 | Arbovirus inh repeat=-2
Cc1cc(C2(c3ccc(O)c(C)c3)OC(=O)c3ccccc32)ccc1O | -2% | 20 | -32 | -23 | -6
C1CCN=C(Nc2nc3c(s2)CCCC3)CC1 | 0% | 1.8 | 8 | -13 | -2
COc1ccc(Nc2nc(N)c([N+](=O)[O-])c(NCc3ccccc3)n2)cc1 | 8% | -1.2 | . | . | -8
COC(=O)Cn1cc(S(=O)(=O)NCc2ccc(C)cc2)c2cc([N+](=O)[O-])ccc21 | . | -1.4 | . | . | 2
Cc1cc(C)n(CC(=O)NC2CCCc3c2cnn3-c2ccccc2F)n1 (configuration not stated) | . | -6.2 | . | . | 4
CCOCCCNC(=S)N1CCCC(c2nc3ccc(C)cc3[nH]2)C1 (configuration not stated) | 4% | 9.5 | -1 | . | 6
CC(=O)/C(C=Nc1noc(C)c1Br)=C(\C)O | 4% | -8.8 | . | . | -3
Cc1ccccc1C(=O)Nc1ccc(C(=O)N/N=C/c2ccc(O)cc2)cc1 | . | -0.1 | . | . | 9
Cn1c(=O)c2c(ncn2CC(=O)N(Cc2ccccc2)c2ccccn2)n(C)c1=O | -9% | 2.3 | 2 | -33 | 1
Cc1ccsc1C(=O)NCc1ccccc1Cl | . | -1.8 | . | . | -1
CC(C)(C)OC(=O)N1CCC[C@H]1c1nnc(SCc2ccc(Cl)cc2Cl)o1 | 2% | 22 | -19 | 6 | -7
CCC(=O)NC(=S)Nc1ccc(NC(=O)COc2ccccc2)cc1 | 79% | 0.2 | 1 | -22 | 97
CC(CCOC1=NS(=O)(=O)c2ccccc21)NC(=O)C(=O)Nc1ccccc1 (configuration not stated) | -3% | -0.2 | . | . | 1
Cc1cccc2c(SCC(N)=O)nc(-c3ccccc3)nc12 | . | -0.7 | . | . | 5
COc1ccc(NS(=O)(=O)c2cccc(C(=O)NCC(c3ccco3)N(C)C)c2)cc1 (configuration not stated) | . | 1.3 | . | . | -6
C/C(N)=C(/C#N)C(=O)COC(=O)c1cc(C)n(-c2ccc(F)cc2)c1C | 23% | 0.5 | 0 | 19 | -2
C=C1CCN(c2ccc(C(=O)NCc3ccc(OC)cc3)cc2[N+](=O)[O-])CC1 | -6% | 4.8 | . | . | 56
Cc1ccc(C(=O)NNC(=O)c2ccc(S(=O)(=O)N3CCOCC3)cc2)cc1 | . | 2.1 | . | . | -7
Cc1cccc(CSc2nnc(-c3ccccn3)n2N)c1 | -1% | -2.5 | -4 | -50 | -5 | Arbovirus inh repeat=-5
COc1ccc(-n2c3c(c(=O)[nH]c2=O)C(NC(=O)c2ccncc2)(C(F)(F)F)C(=O)N3)cc1 (configuration not stated) | 6% | 2.9 | 5 | . | 2
COc1cccc(NC(=O)c2sc(NC(=O)c3ccncc3)nc2C)c1 | 0% | -1.0 | . | . | 16
Cc1ccc(NC(=O)CSCC#N)cc1Cl | 47µM* | -1.7 | -4 | -22 | 88
CCC(C)NC(=O)c1cc2c(=O)[nH]c3ccc(C)cc3c2s1 (configuration not stated) | . | -7.3 | . | . | 5
COc1cc(NC(=S)N2CCN(C/C=C/c3ccccc3)CC2)cc(OC)c1 | 16% | -0.2 | 27 | -38 | 55
CCN1CCN(C(=O)CN(CC)S(=O)(=O)c2ccc(F)cc2)CC1 | . | 0.2 | . | . | 3
CCc1ccc2[nH]c(=O)c(CN(CCN(C)C)C(=O)Nc3ccccc3)cc2c1 | 3% | -0.6 | 1 | -28 | -10
Cc1cccc2cc(C#N)c(SCC(=O)Nc3ccccc3N3CCOCC3)nc12 | -2% | 0.3 | -4 | -1 | 3
O=C(Nc1cccc2c1C(=O)NC2=O)c1cccc(N2C(=O)CCC2=O)c1 | -6% | . | 2 | . | 1
CCC1(CC)Cc2ccccc2-c2nc(CN3CCOCC3)[nH]c(=O)c21 | -6% | 4.7 | 6 | -28 | 24
CCC(C)NC(=O)C1CCC(CNS(=O)(=O)c2ccc3c(c2)CC(C)N3C(C)=O)CC1 (configuration not stated) | . | -2.4 | . | . | 2
Cc1ccc(-c2nc3ccccc3[nH]2)cc1NC(=O)c1sc2ccccc2c1Cl | -3% | -9.0 | -2 | -17 | 15
Clc1nc2ccccc2cc1/C=N/Nc1nc2ccccc2[nH]1 | 13% | -0.4 | -21 | -4 | 9
Nc1nnc(SCC(=O)NC2CCCc3ccccc32)s1 (configuration not stated) | -2% | 2.0 | . | . | 2
CS(=O)(=O)N1CCC(NC(=O)Cc2ccccc2)CC1 | -12% | . | 3 | -46 | -3
CCCC(=O)Nc1cc(C(=O)O)ccc1Sc1ccc(C)cc1 | -4% | 0.4 | 3 | . | -2
CCc1ccc(S(=O)(=O)NC(=S)NC2CCCCC2)cc1 | 10% | 13 | 7 | . | -4
Cc1cccc(C)c1OCC(=O)OC/C(O)=C(\C#N)c1nc2ccccc2[nH]1 | 4% | -0.4 | -5 | -12 | 0
CN(C)/C=C(/C(=O)c1ccccc1)S(=O)(=O)c1ccc(Cl)cc1 | 0% | 7.4 | 5 | . | -1
CCOc1ccc(/C=N/NC(=O)CSc2n[nH]c(=O)[nH]c2=O)cc1OC | 5% | -1.7 | 12 | . | 4
Cc1ccc(-c2csc(N3CCC[C@@H]3C(=O)NCCn3c(C(F)(F)F)nc4ccccc43)n2)cc1 | . | 12 | . | . | -1
CC1=CC(C)(C)N2C(=O)C3(C(C#N)=C(N)Oc4cc(C)oc(=O)c43)c3cccc1c32 (configuration not stated) | -3% | -2.2 | 3 | -22 | -7
C=CCn1c(=O)c2c3c(sc2n2c(Nc4ccccc4)nnc12)CCCC3 | -6% | 0.5 | 11 | -8 | -1
S=C1N(c2ccccc2)C(c2ccc(Br)cc2)N2CCCN12 (configuration not stated) | 2% | 4.1 | . | . | 27
CCS(=O)(=O)N1CCC(C(=O)NCCCN2CCCC2)CC1 | -7% | 0.6 | 6 | -29 | -5
COc1ccc(N2CCN(Cc3nc4c(c(=O)[nH]c(=O)n4C)n3CCCc3ccccc3)CC2)cc1 | -2% | -11 | -8 | -40 | -10
COc1ccccc1NC(=O)CCc1nnc2ccc(N3CCC4(CC3)OCCO4)nn12 | . | -0.5 | . | . | -5
CCCOc1c(Cl)cc(/C=N/O)cc1OCC | 14% | -5.2 | 4 | 5 | 50
Cc1ccc(/C=C2/SC(=S)N(C3CCCCC3)C2=O)o1 | . | 11 | . | . | -4
COc1ccc(C(=O)Nc2ccc(NC(=O)c3ccccc3OC)nc2)cc1 | . | 14 | . | . | -2
CN(CCc1ccccn1)C(=S)Nc1ccc(Cl)cc1Cl | 1% | 5.7 | 13 | . | -9
O=C(c1cccc(-n2cccc2)c1)N1CCN(S(=O)(=O)c2c(F)cccc2F)CC1 | . | 3.3 | . | . | -10
O=C(OCc1ccccn1)C1CCN(C(=O)c2ccc(Cl)cc2)CC1 | . | 1.3 | . | . | 2
COc1ccc(NC(=O)CCN2CCN(S(=O)(=O)c3cc(Cl)ccc3Cl)CC2)cc1 | -4% | 0.8 | -11 | 13 | -6

Among those listed so far, these have a tert-butyl group.
SMILES | Mtb growth | RecA splice inh | Arbovirus inh | YopH inh | Mtb betalactam | others
Cc1ccc(C(c2nnnn2C(C)(C)C)N(Cc2ccco2)Cc2cccs2)cc1 (configuration not stated) | 2% | -1.9 | 11 | -22 | -8
CC(C)(C)OC(=O)N1CCC[C@H]1c1nnc(SCc2ccc(Cl)cc2Cl)o1 | 2% | 22 | -19 | 6 | -7

(more compounds)
SMILES | Mtb growth | RecA splice inh | Arbovirus inh | YopH inh | Mtb betalactam | others
COc1ccc(N2CCN(C(CNC(=O)C(=O)NCCCn3ccnc3)c3cccnc3)CC2)cc1 (configuration not stated) | -6% | 0.2 | -1 | . | -4
C[C@H](NC(=O)OC(C)(C)C)c1nnc(SCC(=O)Nc2cccc(Cl)c2)o1 | . | 0.1 | . | . | 12
c1ccc(CCNC2=NCCCS2)cc1 | 6% | -3.8 | 2 | -43 | -19
CCCCc1c(C)nc2ccccc2c1SCCC(=O)O | -3% | 0.0 | 8 | . | 1
CC(=O)Nc1ccc(NC(=O)c2ccc(N(C)S(=O)(=O)c3ccc(C)cc3)cc2)cc1 | . | 0.5 | . | . | -16
COCCn1c(=NC(=O)/C=C/c2cccs2)sc2cc(NC(C)=O)ccc21 | 6% | -9.0 | -3 | -3 | 3
CC(=O)CCc1c(C)[nH]c2ccccc2c1=O | -9% | 0.9 | 2 | -119 | 0
COc1ccc(C2CC(c3ccccc3)=NN2C(=O)COC(=O)c2cc(S(=O)(=O)N3CCOCC3)ccc2Cl)cc1 (configuration not stated) | 9% | -7.6 | 1 | -28 | -2
CCCCC1S/C(=N/N=C/c2ccc(OC)cc2)N(Cc2ccc(OC)cc2)C1=O (configuration not stated) | -1% | 2.8 | 4 | -7 | 5
Cn1ncc(Cl)c1C(=O)Nc1ccncc1 | 3% | 0.6 | 8 | -16 | 1
C=CCn1c(SCn2nnc3ccccc3c2=O)nc2scc(-c3cccs3)c2c1=O | -7% | 2.9 | 4 | -34 | 3

A portion of the library; count on the stated rates, not on these rows.
